Assay outcomes (PubChem)
nsP2pro primary: inhibitors of chikungunya virus nsP2 protease | Q8JUX6 | FRET peptide cleavage, nsP2pro, fluorescence 1 h | Potency, µM (doses to about 24.9 µM), for inactives: at the highest dose activity change, negative = inhibition, actives largely listed as inhibitors | 31,000 tested, 1.1% active | AID 1964107; active means well fitted inhibition curve with a large enough effect; inconclusive means small, poorly fitted or top-dose-only effect; inactive means no such curve, though single readings can be large or run the other way; further: nearly all actives have a fitted effect of over 60% in size; a reference inhibitor and vehicle were the controls
An asterisk follows results filed as active; i = inactive; ? = inconclusive; & = joins results of further samples; [ ] = another dose, or the depositor's remark. On the % scale 0 is the no-effect control and ±100 the full control effect; potency means the concentration at half of the fitted maximal effect. Not all compounds are listed; the hit share may differ from the screen's.

structure	nsP2pro primary
COc1ccccc1-c1nn(CCC(=O)Nc2cccc(C(C)=O)c2)c2nc(C)cc(C)c12	-9.5%
COc1ccc(N2CCN(C(=O)Cc3noc4ccc(C)cc34)CC2)cc1	-32.3%
CN(Cc1cc(C[C@@H]2C[C@H](NC(=O)C(C)(C)C)C2(C)C)no1)c1ccccc1	-5.3%[39.2 µM]
Oc1ccc([C@@H]2Oc3ccc(O)cc3[C@@H]3CCC[C@@H]32)cc1	2.6%
COc1ccc(CCNC(=O)c2cccc(-n3c(C)nc4cccnc43)c2)cc1OC	-8.9%
COc1ccc2c(c1)OC(C)(C)C(c1ccccc1)C2c1ccc(OCCN2CCCC2)cc1 (configuration not stated)	49.6%[activator]
C=C1CCC2C(C)(C)CC(O)CC2(C)C1CCC(C)CCOC(=O)CCC(=O)O (configuration not stated)	28.5%[10 µM]
CCc1ccc2oc(C(=O)NCc3ccccc3)cc(=O)c2c1	-8.8%
CCOc1ccc(CNS(=O)(=O)c2c(C(=O)N3CCCCCC3)c(C)n(C)c2C)cc1OC	?
Cc1ccccc1NS(=O)(=O)c1ccc2[nH]cc(C(=O)N3CCCCC3)c(=O)c2c1	1.3%
CCc1ccc(N2CCn3c2nc2c3c(=O)n(CCc3ccccc3)c(=O)n2C)cc1	-31.8%
CC(C)(C)C(=O)Nc1ccc2nc(SCc3ccccc3)sc2c1	-10.0%
CC1(C)CC[C@]2(C(=O)O)CC[C@]3(C)C(=CC[C@@H]4[C@@]5(C)CC[C@H](O)C(C)(C)[C@@H]5CC[C@]43C)[C@@H]2C1	?
FC(F)(F)c1ccccc1-c1nc(NCc2ccc(Cl)cc2)c2ccccc2n1	i
CN1c2cc(C(=O)NCc3ccccc3)ccc2C(=O)N2CCCC21 (configuration not stated)	-8.9%
CCCCNC(=O)CCCN1C(=O)c2ccccc2Sc2ncccc21	-21.9%
CC1=C(c2ccc(C(C)C)cc2)S(=O)(=O)N=C1N1CCC(C(=O)NCc2ccc(C)o2)CC1	-22.8%
CC(C)Oc1ccccc1C(=O)Nc1nc(-c2ccccc2)cs1	i
O=C(NC1CCCCC1)N1CCCCCC1c1nc(-c2ccncc2)no1 (configuration not stated)	i
CC(C)(C)CC(=O)N[C@H]1CO[C@H]2[C@@H]1OC[C@H]2OCC(N)=O	-13.2%[39.2 µM]
CCc1nc(CC)n2ccn(Cc3ccc(OC)cc3)c(=O)c12	-18.0%
CCN[C@@H]1C[C@H](N)[C@@H](OC2OC(CN)=CCC2N)[C@H](O)[C@H]1O[C@H]1OC[C@](C)(O)[C@H](NC)[C@H]1O (some centres not stated)	17.9%[0.199 µM]
Cc1cc(NS(=O)(=O)c2cc3c(cc2N[C@@H](C)CO)NC(=O)CC3)ccc1F	-5.2%
O=C(Nc1cc(C(F)(F)F)ccc1Cl)[C@H](O)CCc1ccccc1	?
CS(=O)(=O)NC[C@H]1Cn2ccnc2CO1	2.3%[39.2 µM]
CCN1CCN(c2ccc(C(=O)N3CCCC(c4ccccc4)CC3)cn2)CC1 (configuration not stated)	i
C[C@H]1CC[C@@]2(OC1)O[C@H]1CC3C4CC[C@H]5C[C@@H](O[C@@H]6O[C@H](CO)[C@H](O[C@@H]7O[C@H](CO)[C@@H](O)[C@H](O[C@@H]8OC[C@@H](O)[C@H](O)[C@H]8O)[C@H]7O[C@@H]7O[C@H](CO)[C@@H](O)[C@H](O)[C@H]7O)[C@H](O)[C@H]6O)[C@H](O)C[C@]5(C)C4=CC(=O)[C@]3(C)[C@H]1[C@@H]2C (some centres not stated)	-19.8%[5.1 µM]
CC(=O)N(C)CCc1noc(C2CN(Cc3c(F)cccc3Cl)C2)n1	-10.5%
Cc1cc(C)n(CC(=O)N2CCCC2c2nc(CCOCC3CCOCC3)no2)n1 (configuration not stated)	5.0%
CN1CCC2(CCC1=O)CN(C(=O)CCOc1ccccc1)CCN2C (configuration not stated)	-7.8%
O=S(=O)(c1ccc2c(c1)OCCO2)N1CCN(S(=O)(=O)c2ccc(F)c(F)c2F)CC1	-3.8%
Cc1ccn2c(Nc3ccccc3C)c(-c3ccc(N4CCOCC4)cc3)nc2c1	1.3%
COCC1CN(C)CC12CCN(Cc1sccc1C)CC2 (configuration not stated)	0.2%
CCc1nc2c(c(-c3ccc(O)cc3)n1)CCN(Cc1ccc(F)cc1)CC2	3.6%
O=C(CNC(=O)c1ccc(C(F)(F)F)cc1)OC(C(=O)Nc1cc(C(F)(F)F)ccc1Cl)c1ccccc1 (configuration not stated)	4.5%
CC(C)c1noc([C@@H]2Cc3nc[nH]c3CN2C(=O)CC(C)(C)CC(=O)O)n1	-14.4%[39.2 µM]
CCc1nn2c(-c3ccco3)ccnc2c1-c1ccccc1	-28.3%
Cn1c(=O)c2c(nc(CN3CCN(C(=O)C4CC4)CC3)n2Cc2ccccc2Cl)n(C)c1=O	-7.9%
Cc1ccc(NC(=O)Cn2cnc3c(oc4ccccc43)c2=O)cc1Cl	-17.5%
COc1ccccc1Nc1ccnc(N2CCCC(C(=O)NCc3cccc(Cl)c3)C2)n1 (configuration not stated)	i
Cc1ccc2c(CC(=O)NCc3ccccc3)coc2c1C	-14.1%
O=C1N[C@@H](Cc2ccccc2)CN2CCCC[C@@H]12	-6.9%
COc1cccc(C(=O)c2cn(CC(=O)Nc3cccc(Cl)c3C)c3nc(C)ccc3c2=O)c1	-27.0%
Cc1ccc(S(=O)(=O)N(CC(=O)Nc2cccnc2)c2cc(Cl)ccc2C)cc1	23.0%
CCCNC(=O)C1CCC(Cn2c(=O)c3sccc3n(CC(=O)N3CCC(C)CC3)c2=O)CC1 (configuration not stated)	-18.3%
COc1ccc(CC(=O)N2Cc3ccccc3CC23CCCN(C(=O)CN)C3)cc1 (configuration not stated)	i
CC(C)c1ccc(C2CC(=O)N3CN(C4CCCCC4)CSC3=C2C#N)cc1 (configuration not stated)	?
COC(=O)C(c1ccccc1)C1CCCCN1 (configuration not stated)	34.5%[activator]
O=C(NCc1cccs1)C1CCN(C(=O)N2CCOc3ccccc32)CC1	-13.9%
CCOC(=O)c1c(CSc2ccccc2)n(C)c2cc(Br)c(O)c(CN(C)C)c12	15.7%
CN(C(=O)CSc1cn(CC(=O)N2CCCCCC2)c2ccccc12)c1ccccc1	-22.3%
Cc1ccc(S(=O)(=O)NCC2CCC(C(=O)N(C)Cc3ccccc3)CC2)cc1 (configuration not stated)	-12.7%
N=C(N)c1ccc2cc(OC(=O)c3ccc(N=C(N)N)cc3)ccc2c1	66.6%&59.9%&42.1%[activator]
CCC(=O)N1CCc2cc(S(=O)(=O)NC(C(=O)NCCc3ccccc3)C(C)C)ccc21 (configuration not stated)	-17.3%
CCN(C(=O)CSc1nc2ccccc2[nH]1)c1ccccc1	-11.3%
O=C(O)C(O)[C@H](O)[C@H](O)[C@H](O)[C@H](O)CO (some centres not stated)	-10.1%
O=C(NC1CC(=O)N(Cc2cccc(F)c2)C1)c1ccccc1-n1cccn1 (configuration not stated)	i
COCCc1noc(-c2ccc(N(C)Cc3ccnc(C)c3)nc2)n1	i
CC(=O)N1c2ccc(S(=O)(=O)NCC3CCC(C(=O)Nc4ccc(F)cc4)CC3)cc2CC1C (configuration not stated)	-22.7%
COc1cccc(NC(=O)c2sc3nc(C)c(C(=O)Nc4ccc(C)cc4C)c(-c4ccco4)c3c2N)c1	-5.8%

New compounds follow:
structure	nsP2pro primary
CCc1nc(-c2ccc(C)c(S(=O)(=O)N3CCN(c4ccc(C(C)=O)cc4)CC3)c2)no1	-12.7%
CC(C)n1nc(-c2ccc(NC(=O)Nc3cccc(C(F)(F)F)c3)cc2)c2c(N)ncnc21	-4.4%
CCCN1C(=O)CCc2cc(NC(=O)NCCCOCC)ccc21	-1.7%
CCCC1CCC(C(=O)Nc2ccc(S(=O)(=O)Nc3nccs3)cc2)CC1 (configuration not stated)	i
COc1ccc(OCc2nc(C)c(CCO)c(=O)n2CC(=O)NC(C)CCc2ccccc2)cc1 (configuration not stated)	-2.3%
CCCN(CCC)CCCNC(=O)Cn1cc2c(n1)-c1c(oc(C(=O)N3CCCC3)c1C)CC2	-26.7%
COc1ccc(NC(=O)N2CCCC(CN3CCC(C)CC3)CC2)cc1 (configuration not stated)	3.0%
Cn1cncc1-c1nnc([C@H]2CCN(CC3CCCCC3)C2)o1	i
COc1ccc(NC(=O)CCc2nc(C3=CCN(Cc4cccc(Cl)c4)CC3)no2)c(OC)c1	-12.3%
CCC(=O)O[C@@H]1CC(=O)O[C@H](C)C/C=C/C=C/[C@@H](O)[C@H](C)C[C@H](CC=O)[C@H](OC2O[C@H](C)[C@@H](O[C@H]3C[C@@](C)(O)[C@@H](OC(=O)CC)[C@H](C)O3)[C@H](N(C)C)[C@H]2O)[C@H]1OC (some centres not stated)	-0.1%
Cn1cc(P(=S)(c2ccccc2)c2ccccc2)c2ccccc21	4.4%
O=S(=O)(c1cccc(Cl)c1)N1CCN(S(=O)(=O)c2ccc3c(c2)OCCO3)CC1	-9.6%
CCOc1cccc(C(=O)Nc2ccc(S(=O)(=O)N(Cc3ccccc3)c3ccccc3)cc2)c1	-12.3%
O=S(=O)(c1ccc2c(c1)OCCO2)C1CCC(O)CC1 (configuration not stated)	-12.1%
Cc1ccc(-c2cc(C(=O)N3CCCCC3)c3ccccc3n2)cc1C	-0.8%
Cc1cc(N2CCN(C(=O)Oc3ccc(-c4ccccc4)cn3)CC2)c2ccccc2n1	0.0%
CO/N=C(\C(=O)N[C@@H]1C(=O)N2C(C(=O)O)=C(CSc3nnnn3C)CS[C@H]12)c1csc(N)n1	?
S=c1ssc2c1CCC2	?
OC(CCN1CCCC1)(c1ccccc1)C1CCCCC1 (configuration not stated)	13.7%
O=C(Nc1ccc2c(c1)CCN(Cc1ncn[nH]1)C2)c1ccccc1-c1ccc(C(F)(F)F)cc1	167.4%[activator]
CC[C@H]1CN(C(=O)C(C)(C)C)CC[C@H]1CC(=O)N(CC)C(=O)NCCCN(C)C	9.9%[39.2 µM]
COc1cc(N)c(Cl)cc1C(=O)NC[C@@H]1CCN2CCC[C@@H]12	22.7%
Cc1ccc(NS(=O)(=O)c2ccc3c(c2)CCC(=O)N3)cc1Cl	-3.7%
Cn1c2ccccc2c2c(C(=O)N3CCN(c4cccc(C(F)(F)F)c4)CC3)cn(C3CCCCC3)c(=O)c21	-15.1%
CCOC(=O)c1cccc(NCC2=CC(C)(C)Oc3ccc(OC)cc32)c1	-10.7%
Clc1ccc(CN[C@H]2CCN(c3ncc(Br)cn3)C2)c(Cl)c1	?
CC1CCC(=O)CC(O)C(O)CC(=O)O1 (configuration not stated)	?
C[C@]1(OC(=O)/C=C/c2ccccc2)C[C@@H](O)[C@]2(O)C=CO[C@@H](O[C@@H]3O[C@H](CO)[C@@H](O)[C@H](O)[C@H]3O)[C@@H]21	?
CCOc1ccc(NC(=O)c2ccc3[nH]c(C)cc(=O)c3c2)cc1	-18.6%
CCN1C(=O)c2ccccc2Sc2ccc(NC(=O)Cc3ccc(OC)c(OC)c3)cc21	-6.7%

A second format for part of the listing above:
canonical_smiles: CC(C)Oc1ccccc1C(=O)Nc1nc(-c2ccccc2)cs1
  nsP2pro primary = i

canonical_smiles: O=C(NC1CCCCC1)N1CCCCCC1c1nc(-c2ccncc2)no1 (configuration not stated)
  nsP2pro primary = i

canonical_smiles: CC(C)(C)CC(=O)N[C@H]1CO[C@H]2[C@@H]1OC[C@H]2OCC(N)=O
  nsP2pro primary = -13.2%[39.2 µM]

canonical_smiles: CCc1nc(CC)n2ccn(Cc3ccc(OC)cc3)c(=O)c12
  nsP2pro primary = -18.0%

Next results:
structure	nsP2pro primary
Cc1cccc(S(=O)(=O)Nc2cccn3nc(C4CCC4)nc23)c1	16.7%
COc1ccc(-c2nn3c(-c4ccco4)nnc3s2)cc1OC	-4.4%
C=C[C@@]12COC(=O)C(=C)C1[C@@H](O)[C@H](C(=C)C(=O)OC)[C@@H](OC(=O)C(=C)CO)C2 (some centres not stated)	-13.1%[10 µM]
Cc1cc(S(=O)(=O)C(CNC(=O)COc2ccccc2)c2cccs2)ccc1F (configuration not stated)	-19.9%
CC12CCC3c4ccc(O)cc4CCC3C1CCC2=O (configuration not stated)	-19.3%
CCCCCC(O)/C=C/C1C(O)CC(=O)C1C/C=C/CCCC(=O)O (configuration not stated)	-11.0%
CCn1cc(S(=O)(=O)c2cccc(C)c2)c(=O)c2cc(F)c(N3CCN(c4ccccc4)CC3)cc21	-2.8%
COc1cccc(NC(=O)Cn2c(=O)n(Cc3ccco3)c(=O)c3cc(OC)c(OC)cc32)c1	-3.7%
CCC1(O)CC2c3cc(OC)c(OC)cc3CCN2CC1CC(C)C (configuration not stated)	-11.7%
COc1ccc(Br)cc1C1Sc2ccccc2NC2=C1C(=O)c1ccccc12 (configuration not stated)	-12.3%
CNC(=O)c1cc(C2CC2)nc2onc(C3CCCN3C(=O)Cc3ccccn3)c12 (configuration not stated)	1.4%
O=C(O)c1ccc(-n2cccc2/C=C2\SC(=O)N(Cc3ccc(Br)cc3)C2=O)cc1	i
O=C(NCCc1nc2ccccc2n1Cc1ccccc1F)c1ccc(F)cc1	-2.6%
Cn1cc(C(=O)N2CCC(N(Cc3ccccc3)C3CCOCC3)CC2)cn1	4.5%
CCCn1c(C)nc2c(NCCCCN(C)C)nc(C)nc21	1.9%
CCCn1ncnc1C(C)Nc1cc(C(C)C)nc2cc(C)nn12 (configuration not stated)	i
